Compound activity (PubChem)
Cruzain inh Det – blocks cruzain activity in presence of Triton detergent; AID 1478; P25779; purified cruzain, Z-FR-AMC fluorescence, 0.01% Triton; Potency, µM, for inactives: max response, negative = inhibition, usual class: inhibitors; actives 0.43% (n = 200,000);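 note: plate controls were neutral wells for no effect and buffer without enzyme for full effect; nearly all actives have a fitted effect of over 40% in size; top concentration of the series not given in the record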
Target sequence (P25779 123-467 limits assumed): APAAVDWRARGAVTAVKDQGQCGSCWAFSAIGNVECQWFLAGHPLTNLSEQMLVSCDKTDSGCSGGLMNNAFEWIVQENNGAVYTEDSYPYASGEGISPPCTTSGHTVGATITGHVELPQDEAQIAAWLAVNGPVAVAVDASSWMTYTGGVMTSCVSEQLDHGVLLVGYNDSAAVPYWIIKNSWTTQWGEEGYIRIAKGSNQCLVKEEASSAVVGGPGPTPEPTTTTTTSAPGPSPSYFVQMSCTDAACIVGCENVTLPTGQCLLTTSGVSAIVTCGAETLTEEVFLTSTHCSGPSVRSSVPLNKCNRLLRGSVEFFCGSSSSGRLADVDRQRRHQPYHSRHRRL
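Read-out: AMC fluorescence (360 nm excitation, 450 nm emission), four reads over 2 min, first-to-third difference used. Conditions: cruzain 1.5 nM, Z-FR-AMC 2 uM, pH 5.5 acetate, 5 mM DTT, 0.01% Triton X-100.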
SARS PLpro yeast – SARS-CoV PLP inhibition in yeast; actives 0.19% (n = 330,000); Potency, µM (doses to about 32.9 µM), for the others: at the top dose activity, positive = growth rescue; S. cerevisiae expressing SARS-CoV PLpro, growth rescue; control for the full effect not named in the record; active means well fitted rising curve with a large enough effect; inconclusive means small, poorly fitted or top-dose-only effect; inactive means no such curve, though single readings can be large or run the other way; note: 0% is about no effect; nearly all actives have a fitted effect of over 55% in size; growth read by luminescence after 48 h
RE007 growth inh – less growth of the S. pombe RE007 Vpr strain | S. pombe RE007 Vpr strain, BacTiter-Glo ATP luminescence, 24 h; control for the full effect not named in the record | Potency, µM (top dose mostly 92.2 µM), for inactives: top-dose activity change, negative = less growth | actives 0.21% (n = 360,000) | AID 651644; active = well fitted falling curve with a large enough effect; inconclusive = small, poorly fitted or top-dose-only effect; inactive = no such curve, though single readings can be large or run the other way;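 note: % is set by controls: 0 for no effect and ±100 for the full control effect; nearly all actives have a fitted effect of over 50% in size; the assay follows cell death caused by Vpr and the record does not say whether a fall means rescue or toxicity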
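Fission yeast RE007 carrying one integrated HIV-1 vpr copy, seeded at OD 0.01 in PMG+AL medium with 23 nL pinned compound. Grown 24 h at 30 degrees; viability read by BacTiter-Glo luminescence after 5 min.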
Cruzain noTriton – inhibitors of Trypanosoma cruzi cruzain without detergent | Potency, µM, without a hit: max response, negative = inhibition, hits mostly inhibitors | actives 2.3% (n = 200,000) | P25779 | purified cruzain, Z-FR-AMC fluorescence, no detergent;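 note: plate controls were enzyme without inhibitor for no effect and buffer without enzyme for full effect; nearly all actives have a fitted effect of over 40% in size; top concentration of the series not given in the record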
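Purified cruzain at 1.5 nM, pre-incubated 15 min with compound at room temperature in 100 mM sodium acetate pH 5.5, 5 mM DTT, 0.00005% Triton X-100. Reaction started with 2 uM Z-FR-AMC; AMC fluorescence increase over 60 s gives rate.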
MARV entry inh – inhibitors of Marburg virus binding or cell entry; Marburg virus pseudotyped entry inhibition, cell reporter; control for the full effect not named in the record; about a third of the inactives were read at about 46 µM; Potency, µM (titrated, usually from 37.8 µM), for the others: at the top dose activity change, negative = inhibition, most hits filed as inhibitors; actives 1.8% (n = 300,000); AID 540276; active = well fitted inhibition curve with a large enough effect; inconclusive = small, poorly fitted or top-dose-only effect, or effect the other way; inactive = flat fitted curve, though single readings scatter; tested in HEK293 cells; about a fifth of its hits are not listed in these tables; note: % is set by controls: 0 for no effect and ±100 for the full control effect; luciferase read-out
LASV entry inh – Lassa virus entry inhibition | Lassa virus pseudotype entry inhibition, cell reporter; control for the full effect not named in the record | Potency, µM (doses to about 37.9 µM), inactives show at the highest dose activity change, negative = inhibition, most hits filed as inhibitors | actives 1.2% (n = 300,000) | AID 540256; active means well fitted inhibition curve with a large enough effect; inconclusive means small, poorly fitted or top-dose-only effect, or effect the other way; inactive means flat fitted curve, though single readings scatter; tested in HEK293 cells; note: % is set by controls: 0 for no effect and ±100 for the full control effect; nearly all actives have a fitted effect of over 50% in size; luciferase read-out
StopGo reporter – lowers the luciferase signal of an FMDV 2A StopGo reporter. human cells with a luciferase reporter of 2A StopGo recoding; control for the full effect not named in the record. Potency, µM (top dose mostly 57.9 µM), without a hit: at the highest dose signal change, negative = less light. actives 1.2% (n = 410,000); active = well fitted falling curve with a large enough effect; inconclusive = small, poorly fitted or top-dose-only effect; inactive = no such curve, though single readings can be large or run the other way; tested in HEK293T cells; note: % is set by controls: 0 for no effect and ±100 for the full control effect; nearly all actives have a fitted effect of over 45% in size; luciferase light after 4 h
NS1 function inh – blocks influenza NS1 protein function | S. cerevisiae slowed by influenza A NS1, growth recovery by OD600 | Potency, µM (doses to about 46.1 µM), for the others: top-dose activity, positive = more growth | actives 0.4% (n = 270,000) | AID 2326; active means well fitted rising curve with a large enough effect; inconclusive means small, poorly fitted or top-dose-only effect; inactive means no such curve, though single readings can be large or run the other way; note: nearly all actives have a fitted effect of over 50% in size
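Growth recovery, yeast-based: influenza A NS1 expressed in S. cerevisiae causes slow growth, and suppressors are detected by OD600. The parent strain without NS1 is used as positive control.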
* hit, by the source's call; ? = inconclusive; / = no result given; [ ] = another dose, or the depositor's remark. Unless noted, calls come from the whole dose curve; as a rule, active = well fitted curve in the direction sought with a large enough effect; inconclusive = small, poorly fitted or top-dose-only effect, or another doubt; inactive = no such curve, though single readings can be large; an effect the other way counts as inactive or inconclusive. Potency is the fitted concentration of half-maximal effect. Rows were taken by chance; overall some 4.5% were active at least once.

SMILES	Cruzain inh Det	SARS PLpro yeast	RE007 growth inh	Cruzain noTriton	MARV entry inh	LASV entry inh	StopGo reporter	NS1 function inh
CCc1ccc(C2CC(c3cccc(OC)c3)n3nc(N)nc3N2)cc1 (stereo not given)	-6.0%	2%	3%	-1%	/	/	?	4%
S=c1[nH]nc(CN2CCCCC2)n1-c1ccc(Cl)cc1	/	4%	-14%	/	13%[46.1 µM]	18%	-11%	10%
CCCCCCn1c(=O)[nH]c2nc3cc(N)c(C)cc3nc2c1=O	-14%	-10%	9%	17%	?	?	-26%	?
COc1ccc(-n2cnc3cc([N+](=O)[O-])ccc32)cc1	/	-1%	-3%	/	-7%[46.1 µM]	29%	14%	-1%
Cc1cc(NC(=O)c2ccccc2F)nc2c1c(=O)oc1ccccc12	/	1%	-8%	/	?	12%[46.1 µM]	-20%	/
CCC(C)(C)n1nnnc1CN1CCC(NC(=O)c2ccc(Br)cc2)CC1	-1.1%	24%	-6%	13%	7%	-23%	?	-22%
O=C(C[n+]1cccc(CNC(=O)c2ccc(OC(F)F)cc2)c1)Nc1ccc(F)cc1	-2.1%	-8%	-1%	6%	-4%	1%	-23%	-2%
Cc1cccc(C)c1NC(=O)CN(C)S(=O)(=O)c1ccc2c(c1)n(C)c(=O)c(=O)n2C	-2.8%	/	/	-4%	8%[46.1 µM]	-29%[46.1 µM]	-9%	/
C=C(C)C1CC=C(C)/C(=N\NC(=O)CCC(=O)Nc2ccc(C)c(C)c2)C1 (stereo not given)	/	-1%	-1%	/	-1%[46.1 µM]	-13%	?	-8%
CC(Sc1nnc(-c2ccccc2F)o1)C(=O)Nc1ccc(N2CCOCC2)cc1 (stereo not given)	/	-2%	0%	/	8%	?	24%	/
Cc1ccc(CNC(=O)C2CCCN(S(=O)(=O)c3ccc4c(ccn4C)c3)C2)cc1 (stereo not given)	-2.1%	/	/	?	/	?	-8%	/
Cn1cc(C(=O)c2ccccc2)cc1-c1nc2ccccc2n1C	-1.6%	-17%	-3%	-5%	?	-15%	-26%	-92%
COc1ccccc1N(C)S(=O)(=O)c1ccc(C(=O)OCC(=O)NCC(F)(F)F)cc1	/	3%	-12%	/	-16%[46.1 µM]	2%	-11%	/
Cc1ccc(N=C2NC(=O)/C(=C/c3cccn3C)S2)c(C)c1	/	-1%	-16%	/	?	?	-3%	6%
O=C(Oc1ccc(F)cc1)c1ccc2c(=O)n3c(nc2c1)CCC3	/	-6%	3%	/	-11%	-4%[46.1 µM]	44%[activator]	/
O=S(=O)(NC1=NCCCCC1)c1ccccc1Cl	/	1%	-8%	/	/	/	-7%	8%
CCOc1ccc(CCNC(=O)c2nccnc2C(=O)O)cc1OCC	/	0%	-1%	/	/	/	-4%	2%
CS(=O)(=O)N1N=C(c2ccc(Br)cc2)CC1c1cccs1 (stereo not given)	2.5%	3%	-13%	4%	11%	3%	72%[activator]	5%
O=C(O)c1ccc2c(c1)C(=O)N(C(Cc1ccccc1)C(=O)O)C2=O (stereo not given)	0.1%	-4%	8%	-5%	20%	-2%	/	-2%
Nc1cc2ccncc2c2ccccc12	/	-8%	0%	/	/	/	-21%	-31%
Cc1ccc(-c2csc3nc4cc(C(=O)NC5CCC(O)CC5)ccc4c(=O)n23)cc1 (stereo not given)	/	-2%	-1%	/	/	/	-25%	-6%
COc1ccc(-n2nc3c(c2NC(=O)C2CC(=O)N(c4ccccc4)C2)CS(=O)(=O)C3)cc1 (stereo not given)	/	9%	6%	/	0%	20%	-16%	11%
N#CCCN(CCC#N)c1nncs1	12%	-10%	-6%	5%	16%	5%	-17%	2%
O=C(CCS(=O)(=O)c1ccc2c(c1)NC(=O)CS2)NCCc1ccc(Cl)cc1	/	-2%	6%	/	/	/	-28%	3%
Cc1cc(C)c(C#N)c(SCCS(=O)(=O)c2ccc(C(C)(C)C)cc2)n1	-1.6%	-1%	0%	-2%	?	-13%	-20%	2%
SMILES	Cruzain inh Det	SARS PLpro yeast	RE007 growth inh	Cruzain noTriton	MARV entry inh	LASV entry inh	StopGo reporter	NS1 function inh
CCCCN1CCc2c1nc1ccc(Br)cc1c2N	-12%	0%	-5%	-12%	?	0%	-13%	-7%
Oc1ccc(Br)cc1-c1cc(-c2ccc(Cl)cc2)n[nH]1	8.2%	-10%	-3%	32µM*	-22%	-5%	-12%	3%
CCC(=O)Nc1ccc(N2CCCCC2)c(C(=O)Nc2ccccc2C)c1	-6.6%	5%	15%	12%	?	-36%[14.3 µM]	-14%	-32%
Cc1cccc(C(=O)NC2C(=O)NNC2c2ccc(Cl)cc2)c1 (stereo not given)	/	4%	-16%	/	19%[46.1 µM]	1%	-12%	/
CCN(C(=O)COC(=O)Cn1cnc2c1c(=O)n(C)c(=O)n2C)C1CCS(=O)(=O)C1 (stereo not given)	/	1%	8%	/	-8%[46.1 µM]	?	-1%	-5%
CCN(CC)CCN(C(=O)C1=COCCO1)c1nc2c(OC)ccc(OC)c2s1	/	-3%	-25%	/	4%	5%	-1%	-4%
Cc1ccc(S(=O)(=O)n2cnc3cc([N+](=O)[O-])ccc32)cc1C	8.9%	1%	9%	5%	1%	2%	-12%	-8%
Cc1ccc(S(=O)(=O)/N=S(\C)C(C)C)cc1 (stereo not given)	-1.0%	3%	-21%	-8%	5%	3%	20%	-6%
O=C(CSc1nc(=O)n2ccccc2n1)Nc1cccc2ccccc12	/	4%	6%	/	3%	14%	0%	/
CC(C)(CC(=O)O)CC(=O)O	/	2%	16%	/	/	/	-1%	-4%
COc1ccc(C(=O)OC(C(=O)c2ccccc2)c2ccccc2)cc1 (stereo not given)	-0.8%	7%	18%	-9%	-29%[46.1 µM]	-10%	-17%	4%
COc1ccc(NC(=O)CN2C(=O)C(C)Oc3ccccc32)cc1 (stereo not given)	1.9%	10%	45%	-17%	9%	12%	1%	-7%
O=C(CCCC(=O)c1ccccc1)NCCc1ccccc1	/	-3%	-12%	/	3%[46.1 µM]	0%[46.1 µM]	5%	4%
CCc1ccc(CN2CCC(n3nccc3NC(=O)c3ccccc3C)CC2)cc1	/	0%	-17%	/	?	?	-11%	13%
COc1ccc(C(=O)O)cc1S(=O)(=O)N1CCCc2ccccc21	/	1%	9%	/	/	/	3%	7%
C=CCOc1c(Br)cc(CNn2cn[nH]c2=S)cc1OC	/	0%	-8%	/	2%[46.1 µM]	22%[46.1 µM]	-6%	0%
COc1ccc(NC(=O)CSc2nnc(-c3ccccc3)n2Cc2ccco2)c(OC)c1	-4.7%	1%	12%	-3%	-22%	0%	0%	-21%
C=CCC1NCCc2c(Br)cccc21 (stereo not given)	/	0%	-22%	/	?	-2%[46.1 µM]	-7%	/
CCOC(=O)CSc1nc(-c2ccc(OCC)cc2)cc(C(F)(F)F)c1C#N	-0.5%	/	/	-11%	-15%[46.1 µM]	2%[46.1 µM]	-7%	/
COc1cccc(C(=O)C2CCCN(Cc3cn(CC(N)=O)c4ccccc34)C2)c1 (stereo not given)	/	1%	4%	/	?	-13%[46.1 µM]	-1%	-4%
CC(O)[C@H]1CNC(=O)C(=O)N1CC1CCCCC1 (stereo not given in full)	/	0%	1%	/	/	/	-9%	13%
CCC(=NCc1ccco1)c1c(O)n(-c2ccc(C)cc2)c(=O)[nH]c1=O	-0.9%	6%	16%	0%	?	0.58µM*	-17%	-1%
CCCC(=O)NCCc1cc(OC)c(OC)cc1Br	-0.2%	-1%	4%	-6%	?	-2%	-18%	8%
CCOc1cc(/C=N/Nc2nnc(C)n2N)ccc1OC(C)=O	/	-7%	-6%	/	?	?	14%	-38%
CCc1ccc(-c2cn3c(n2)sc2cc(C(=O)NCCc4ccc(OC)cc4OC)ccc23)cc1	-3.9%	/	/	0%	/	-14%[46.1 µM]	1%	/
SMILES	Cruzain inh Det	SARS PLpro yeast	RE007 growth inh	Cruzain noTriton	MARV entry inh	LASV entry inh	StopGo reporter	NS1 function inh
CC(=O)c1ccc(OCC(=O)Nc2ccc3nc(C)sc3c2)cc1	/	0%	-14%	/	-2%	-20%	-4%	10%
O=C(c1cccnc1)N1CCN(C(=O)c2cccc(Cl)c2)CC1	/	-1%	-10%	/	6%	14%	-5%	-5%
Cc1noc(C)c1S(=O)(=O)N1CCC(C(=O)N2CCN(C3CCCC3)CC2)CC1	3.4%	1%	/	8%	/	/	/	1%
CCCCNc1nc(C)c(C(C)=O)cc1C#N	/	-1%	10%	/	2%	12%[46.1 µM]	-14%	/
COC(=O)c1ccc(COC(=O)c2ccc(N(C)C)cc2)cc1	-1.9%	2%	5%	9%	7%	-6%	/	10%[9.22 µM]
COC(=O)[C@H](C)NC(=O)c1cc2c(cn1)[nH]c1ccccc12	/	0%	-29%	/	21%[46.1 µM]	6%[46.1 µM]	0%	1%
Cc1ccc(C)c(Nc2cc(C(=O)NCCCN(C)C3CCCCC3)c3ccccc3n2)c1	-7.3%	/	/	-5%	?	-17%[46.1 µM]	-9%	/
CCOC(=O)N/N=C(C)/C=C/c1ccccc1	-4.8%	-4%	-23%	-7%	19%	-1%	16%	-7%
O=C(NC1(C(F)(F)F)NC(=O)N(Cc2cccnc2)C1=O)c1ccc(F)cc1 (stereo not given)	3.7%	1%	4%	-5%	5%	3%	5%	0%
Cc1ccc(SCCC(=O)Nc2ccc(Br)c(C)c2)cc1	-7.3%	-13%	-13%	-5%	-11%	5%	?	-6%
COC(=O)c1nn(-c2ccccc2)c(Sc2ccc(OC)cc2)c1/C=N/O	-2.5%	-4%	9%	-1%	2%	25%	-14%	-8%
CC(=O)CCC(C)=O	-1.0%	-11%	-5%	4%	/	/	-25%	/
Cc1ccc(-c2cc(C(=O)N/N=C/c3c[nH]c4ccccc34)[nH]n2)cc1	-16%	-7%	16%	5%	?	?	-1%	-1%
COc1ccc(N(CC(=O)N2CCC(C)CC2)S(=O)(=O)c2c(C)nn(C)c2C)cc1	1.3%	-12%	0%	?	-5%	/	18%	-8%
